# Screening results: PubChem BioAssay, National Center for Advancing Translational Sciences (NCATS)
# Menin MLL FP FL – inhibitors of human menin-MLL interaction, wild-type MLL peptide; 290,000 tested, under 10 active; AID 1766; Fluorescence polarization, fluorescein-MLL peptide displacement from menin; FP activity change, % at 61.4 µM; inconclusive = falling polarisation curve, or a change in total fluorescence; inactive = total fluorescence flat and polarisation flat or rising; no compound was filed as active; the % refers to the polarisation; negative = inhibition;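 also: % of control where 0% means no effect; inhibitors lower the polarisation; unlabelled MLL peptide was the positive control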
# TRPML1 agonist – agonists of human TRPML1 channel. 0.12% of 410,000 active. activation, % (no concentration beside the values). Q9GZU1. TRPML1-expressing cells, Ca2+ dye fluorescence, FDSS; host cell line not named in the record; reference of the full effect not given here. AID 624414; in the data active = activation above about 50%; inconclusive = about 30% to 50%; inactive = below about 30%; also: 0% is about no effect; the text of the record puts the active cut at 80%
# Target sequence (Q9GZU1 whole entry, looked up): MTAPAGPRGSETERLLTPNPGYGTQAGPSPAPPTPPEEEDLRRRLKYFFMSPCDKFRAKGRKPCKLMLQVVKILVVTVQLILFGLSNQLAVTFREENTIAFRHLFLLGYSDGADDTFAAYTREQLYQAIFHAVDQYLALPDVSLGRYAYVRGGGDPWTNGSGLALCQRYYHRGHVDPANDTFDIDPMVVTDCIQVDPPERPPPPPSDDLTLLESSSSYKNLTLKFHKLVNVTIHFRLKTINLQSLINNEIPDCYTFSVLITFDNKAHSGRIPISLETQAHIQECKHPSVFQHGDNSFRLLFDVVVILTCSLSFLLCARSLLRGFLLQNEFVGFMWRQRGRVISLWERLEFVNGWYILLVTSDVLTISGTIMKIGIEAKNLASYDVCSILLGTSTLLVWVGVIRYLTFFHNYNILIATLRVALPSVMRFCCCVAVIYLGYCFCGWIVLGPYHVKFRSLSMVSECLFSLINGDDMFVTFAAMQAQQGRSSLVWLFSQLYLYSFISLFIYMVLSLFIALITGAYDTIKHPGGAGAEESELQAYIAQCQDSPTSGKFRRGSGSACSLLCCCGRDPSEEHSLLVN
#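 Kinetic FDSS Ca2+ read in Tet-induced TRPML1-DL cells (ABD Ca8 dye plus quencher, 45-90 min RT loading): baseline, then compound, then 110 s agonist window; EC80 agonist 54-4 at 4uM final added afterwards for a 110 s antagonist window.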
# TRPML1 blocker – inhibitors of human TRPML1 channel. Q9GZU1. AID 624415. activity change, negative = inhibition, % (concentration not given with the values). 0.02% of 390,000 active. TRPML1-inducible cells, Ca2+ dye fluorescence, FDSS; active compounds read low; inhibition of EC80 agonist-evoked calcium signal; in the data active means activity change below about -50%; inconclusive means about -30% to -50%; inactive means above about -30%;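 also: stimulus is agonist 54-4 at its EC80 concentration; % is scaled to controls: 0 for no effect and ±100 for the full control effect; the text of the record puts the active cut at -80%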
#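 Calcium fluorescence in TRPML1-DL cells induced overnight with Tet: a 110 s read after compound pin addition, then a 110 s antagonist read after challenge with 54-4 at 4 uM final (EC80).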
# gsp antagonist – antagonists of gsp mutant (McCune-Albright syndrome) | gsp-mutant cells, cAMP HTRF, 30 min; control for the full effect not named in the record | Potency, µM (top dose mostly 76.9 µM), for the others: top-dose activity change, negative = inhibition, hits mostly inhibitors | 0.4% of 340,000 active | AID 624288; active = falling curve of any shape with a large fitted effect; inconclusive = falling curve, mostly with a smaller effect; inactive = flat or rising curve; cell line not stated here;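 also: intracellular cAMP measured with PDE inhibitor Ro 20-1724 present during compound exposure; potency is read from the fitted curve at half-maximal effect; % is scaled to controls: 0 for no effect and ±100 for the full control effect; nearly all actives have a fitted effect of over 65% in size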
#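 Cells in G418 medium, seeded 16-24 h, 37C; buffer exchange to DPBS + 1 mM CaCl2, 0.5 mM MgCl2, 0.05% BSA; cpds in DMSO + […] (300 uM stock), 30 min 37C; HTRF cAMP detection.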
# gsp ag – agonists of gsp mutant (McCune-Albright syndrome); gsp mutant cells, cAMP HTRF, 30 min; control for the full effect not named in the record; Potency, µM (top dose mostly 76.9 µM), for inactives: at the top dose activation (cAMP increase), hits mostly activators; 0.13% of 340,000 active; AID 624287; active = well fitted activation curve with a large enough effect; inconclusive = small, poorly fitted or top-dose-only effect, or another doubt; inactive = no such curve, though single readings can be large or run the other way; cell line not stated here;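 also: phosphodiesterase inhibitor Ro 20-1724 added with compounds to block cAMP breakdown; potency is read from the fitted curve at half-maximal effect; nearly all actives have a fitted effect of over 60% in size; about a fifth of the inactives were tested at one dose only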
#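 Cells stably selected in G418 were plated at 2000/well, grown 16-24 hr, then given compounds in DMSO with the PDE inhibitor […] (300 uM solution added) for 30 min at 37C; cAMP was read by HTRF.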
# ClpP mod – qHTS Assay for Activators of ClpP; ATP-dependent Clp protease proteolytic subunit (Bacillus subtilis (strain 168)), P80244; purified B. subtilis ClpP, FRET peptide cleavage, 20 min; Potency, µM (titrated, usually from 57.5 µM), inactives show at the top dose activity change, negative = active; 1.9% of 340,000 active; active = well fitted falling curve with a large enough effect; inconclusive = small, poorly fitted or top-dose-only effect; inactive = no such curve, though single readings can be large or run the other way; also: potency is read from the fitted curve at half-maximal effect; the source files actives as falling curves though it sought activators and does not explain the sign; nearly all actives have a fitted effect of over 65% in size; many hits overshoot -100%
# Target sequence (P80244 whole entry, looked up): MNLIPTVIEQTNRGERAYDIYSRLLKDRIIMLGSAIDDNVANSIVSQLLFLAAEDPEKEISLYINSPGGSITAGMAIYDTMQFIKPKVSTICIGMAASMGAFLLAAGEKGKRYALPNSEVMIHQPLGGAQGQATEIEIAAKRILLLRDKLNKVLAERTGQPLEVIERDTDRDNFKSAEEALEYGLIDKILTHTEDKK
#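 FRET quenching reversal measured ClpP activation: 10 microg/mL B. subtilis ClpP at pH 8 with the FRET-FV decapeptide, read at 430 nm after 320 nm excitation. The 20-min minus 0-min signal was scaled between DMSO/no-enzyme wells and ADEP (5.8 microM final).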
# * marks the source's active call; other numbers are inactive results; ? = inconclusive; . = not tested or not shown; [ ] = remark or other dose.
mol | Menin MLL FP FL | TRPML1 agonist | TRPML1 blocker | gsp antagonist | gsp ag | ClpP mod
Cc1ccc(C)c(Nc2nn3c(=O)c4ccc(C(=O)NCc5ccccc5)cc4nc3s2)c1 | . | 0.0 | 26.7 | . | . | -4.4%
CCN(C(=O)COC(=O)c1ccccc1O)c1cccc2ccccc12 | . | -0.2 | 15.0 | -23.3% | 4.8%[15.4 µM] | -0.2%
Cc1ccc(-c2[nH]nc(N)c2N=Nc2cccc(Cl)c2C)cc1 | -1.1 | -0.1 | -15.1 | 11.8% | -0.3% | -21.4%
CCCCCOC(=O)CSc1nnc(-c2cc(OC)c(OC)c(OC)c2)o1 | 6.2 | 2.3 | -12.4 | -13.4% | -35.7% | -2.5%
CC(=O)c1cc(-c2ccccc2)n(CCC(=O)Nc2nc3c(C)cccc3s2)c1C | . | 1.5 | -12.9 | . | . | -3.0%
CN(c1ccccc1)c1ccc(/C=C(/CCC(=O)O)c2nc3ccccc3s2)cc1[N+](=O)[O-] | . | -0.5 | 17.2 | ? | 6.4% | .
CCN1CCCC1CNC(=O)C(=O)Nc1ccccc1 (centres undefined) | -7.2 | -0.7 | -1.0 | 2.7% | ? | .
CC1CCN(c2ccc3c(c2)S(=O)(=O)c2ccccc2C3=O)CC1 | . | 13.0 | 10.0 | -8.6% | 7.9% | 0.2%
O=C(NCc1ccco1)C(=O)NCC1OCCN1S(=O)(=O)c1ccc(Cl)cc1 (centres undefined) | 6.2 | -0.7 | 2.3 | 5.4% | ? | 1.2%
CC(=O)Oc1ccccc1N(C(C)=O)S(=O)(=O)c1ccc(C)cc1 | 14.5 | -0.1 | -13.7 | 4.3% | ? | -0.9%
CCN1C(=O)c2ccccc2S(=O)c2ccc(C(=O)NC3CC3)cc21 (centres undefined) | 0.3 | 0.1 | 17.2 | -0.3% | -48.0%[inhibitor] | 0.3%
COC(=O)[C@]1(C)N[C@H](CN(C)C(=O)c2ccc(C)cc2)[C@@H]2C(=O)N(C)C(=O)[C@@H]21 | . | -0.3 | 3.7 | -10.0% | . | -2.2%
CCCCCC(=O)N1C[C@H](O)[C@@H](n2cc(C3CC3)nn2)C[C@@H]1c1ccc(OC)cc1 | . | -0.5 | -0.1 | . | 46.8% | 0.4%
COc1cccc(C(=O)Cn2c(NCCO)nc3ccccc32)c1 | 1.2 | -0.3 | 37.0 | 3.0% | ? | 0.0%
Cc1ccc(NC(=O)CN(C)C(=O)Cn2cc(C(F)(F)F)cc(Cl)c2=O)cc1 | 4.7 | -1.5 | 2.5 | 5.1% | -23.7% | -4.0%
COc1ccccc1N1CCN(C2CCN(C(=O)COc3ccccc3)CC2)CC1 | 0.6 | -0.2 | 5.2 | 6.8% | 13.3% | 0.4%
CCn1c(C(=O)NCc2cc(Br)ccc2OC)cc2oc3ccccc3c21 | . | 1.5 | -11.3 | . | . | 4.5%
O=C(c1cccnc1)N1CCN(C/C=C/c2ccccc2)CC1 | 0.2 | -0.1 | -7.2 | 6.9% | -18.7% | 1.3%
COc1cc(/C=N/Nc2nncc3ccccc23)cc(OC)c1OC | 0.8 | -0.3 | 1.2 | -4.2% | -1.8% | -0.7%
CCC(C)SCC(=O)Nc1ccc(S(=O)(=O)N2CCOCC2)cc1OC (centres undefined) | 3.3 | 1.1 | 3.4 | 8.6% | -1.8%[15.4 µM] | .
CCc1noc(C)c1C(=O)NCCc1ccccc1 | . | -0.2 | -3.0 | 6.2% | 54.2%[15.4 µM] | .
CC(Sc1ncc(S(=O)(=O)c2ccc(C(C)C)cc2)c(N)n1)C(=O)Nc1ccccc1 (centres undefined) | . | -0.5 | -2.9 | . | . | -5.0%
Cc1n[nH]c(C)c1S(=O)(=O)N(CC(=O)NCc1ccccc1Cl)c1ccc(C(C)C)cc1 | . | 1.8 | -19.2 | . | . | -1.5%
CC[C@]12c3[nH]c4cc(CCC(=O)N(C)C)ccc4c3CCN1C(=O)[C@@H](CC(=O)NCCCN(C)C)C[C@@H]2C(=O)N1CCN(C(=O)C2CC2)CC1 | . | 0.9 | -13.5 | -1.3% | . | -2.4%
COc1ccc2sc(-c3ccc(N(C)C)cc3)c(C#CC(C)(C)O)c2c1 | . | 0.8 | 22.1 | -7.8% | . | 4.3%
CN1C(=O)CS(=O)c2ccc(C(=O)NC3CC3)cc21 (centres undefined) | 3.6 | 0.5 | -7.2 | 1.1% | 8.5% | -1.3%
CCN(CC)C(=O)CSc1nc2ccccc2c(=O)n1Cc1ccco1 | . | 1.1 | -14.4 | . | . | -0.5%
Cc1ccc(N(Cc2ccccc2F)S(C)(=O)=O)cc1C | -1.7 | 0.7 | -1.7 | -24.0% | -4.6% | -1.3%
CCOC(=O)N1CC=C2C(C#N)=C(N)C(C#N)(C#N)[C@H](c3ccsc3)[C@H]2C1 | -3.4 | 4.9 | 2.5 | 6.5% | 4.8% | 9.5%
CN(C)c1ccc(S(=O)(=O)NCC(=O)NCCC2=CCCCC2)cc1[N+](=O)[O-] | . | 0.4 | -10.4 | -9.3% | 0.9% | 0.3%
CC1NC2(C(=O)N(Cc3ccccc3)c3ccccc32)C2C(=O)N(c3ccccc3)C(=O)C12 (centres undefined) | 3.3 | -0.5 | 19.5 | 10.9% | -52.0%[inhibitor] | -0.4%
CN1CCN(CC(=O)c2ccccc2F)CC1 | . | -0.2 | -10.5 | 17.4% | 5.7%[15.4 µM] | -4.2%
CN(C)CCNS(=O)(=O)c1ccc2c3c(cccc13)C(=O)N2 | -1.6 | -0.6 | 7.4 | -2.3% | 16.4% | 4.1%
CC(C)CNC(=O)C1CCCN(S(=O)(=O)c2ccc(-n3cnnn3)cc2)C1 (centres undefined) | 1.6 | 0.9 | 1.4 | 8.1% | -28.9% | 4.2%
CCc1nc2ccc(C(=O)NCc3ccc(OC)cc3)cn2c1N(C)C(=O)Cc1ccccc1 | . | -0.1 | -5.1 | . | . | -5.3%
N#Cc1c(-c2ccccc2Cl)noc1/C=C/Nc1ccc(C(=O)O)cc1 | 19.3 | 1.9 | -6.7 | -2.7% | ? | -14.5%
O=C(Nc1c2c(nn1-c1ccccc1)CS(=O)C2)c1ccc2c(c1)OCO2 (centres undefined) | . | -0.4 | 10.1 | 7.0% | 18.2%[15.4 µM] | -1.5%
CCc1nnc(SCC(=O)N2CCCC(N3CCN(c4ccccc4C)CC3)C2)o1 (centres undefined) | . | -0.4 | -2.1 | 1.9% | 11.6%[15.4 µM] | -1.9%
Cc1ccc(NS(=O)(=O)c2ccc(-c3ccc(=O)[nH]n3)o2)c(C)c1 | -1.1 | 0.1 | 1.7 | -1.8% | 16.7% | -1.6%
O=C(Nc1cn(-c2ccccc2)nc1-c1cccs1)c1ccco1 | 1.8 | 0.0 | -3.2 | -20.6% | 4.9% | -6.0%
CCOC(=O)CC(NC(=O)c1cc2cc(Cl)cc(Cl)c2oc1=O)c1cccc([N+](=O)[O-])c1 (centres undefined) | -2.2 | -0.2 | 7.6 | -12.6% | -5.5%[15.4 µM] | -12.8%
CC(=O)N1CCOc2ccc(S(=O)(=O)N3CCCCC3)cc21 | -1.0 | 0.3 | 2.7 | 17.6% | 7.5% | -0.6%
COc1ccc(-c2nc3ccncc3[nH]2)cc1OC | 0.8 | 0.0 | 21.4 | 11.9% | -26.9% | 28.2µM*
COc1ccc(Cl)cc1CNCCSc1nnnn1-c1ccccc1 | . | -0.3 | 7.1 | . | . | 0.0%
O=C(Nc1ccc(S(=O)(=O)N2CCCC2)cc1)c1ccc(CN2CCc3ccccc3C2)cc1 | 4.9 | 1.0 | -6.0 | -12.0% | -8.1% | -22.1%
COc1ccc(NC(=O)c2cc3c(=O)n(C)c4cc(Cl)ccc4c3s2)cc1Cl | . | -0.6 | -10.1 | . | . | -1.9%
O=C(COc1ccccc1F)N1c2ccccc2CCc2ccccc21 | 0.0 | 0.7 | 2.1 | -17.1% | 3.9% | -2.0%
COc1ccc(OC)c(NC(=O)CCNS(=O)(=O)c2ccc3c(c2)CC(C)N3C(C)=O)c1 (centres undefined) | . | -0.5 | -3.0 | . | 9.9% | 1.9%
OCCN(CC(O)COc1ccccc1)CC(O)Cn1ccc2ccccc21 (centres undefined) | -2.8 | -0.2 | -3.3 | 10.6% | 7.0% | -2.5%
O=C(Nc1ccccc1)N1CCC(C(=O)N2CCN(S(=O)(=O)c3cccc(F)c3)CC2)CC1 | 2.2 | -0.3 | -10.1 | -6.3% | 6.7% | 0.3%

# (next part)
mol | Menin MLL FP FL | TRPML1 agonist | TRPML1 blocker | gsp antagonist | gsp ag | ClpP mod
CCn1c(C)c(C)c2cc(C(=O)NCCc3cc(OC)c(OC)c(OC)c3)ccc21 | . | 2.2 | 13.1 | . | . | -11.7%
O=S1(=O)NC(=NCCc2ccccn2)c2ccccc21 | 0.5 | 3.2 | 7.7 | . | -12.1%[15.4 µM] | .
COc1ccc(Nc2cc(C)nc(N3CCN(C(=O)c4ccc5c(c4)OCO5)CC3)n2)cc1 | . | 0.0 | -16.3 | 10.7% | -7.2% | -1.1%
CC1CCN(S(=O)(=O)c2nnc(NC(=O)c3cccc([N+](=O)[O-])c3)s2)CC1 | 0.5 | -0.5 | -8.0 | ? | 42.5% | 1.2%
NC(=O)c1ccccc1OCC(=O)c1ccc(Cl)cc1 | -0.5 | -0.7 | 3.6 | -6.1% | -27.7%[15.4 µM] | .
CCOC(=O)C1(CCOc2ccccc2)CCN(Cc2ccc3c(c2)OCCO3)CC1 | -0.2 | -0.6 | ? | 4.6% | 2.3% | .
Cc1ccc(C(=O)COC(=O)c2cnccn2)cc1 | 1.3 | -0.4 | 2.8 | 7.8% | 5.5% | -1.9%
COc1ccc(CCNCC(=O)Nc2ccc(OC(F)(F)F)cc2)cc1OC | 7.3 | -0.1 | 1.4 | 7.2% | -0.7% | -0.4%
O=C1Nc2ccccc2C1(O)c1ccccc1 (centres undefined) | 0.2 | 0.4 | 56.3 | -16.7% | -6.0% | 0.1%
CCOC(=O)CSc1nc2ccccc2n1CC(=O)N1CCN(c2ccccc2)CC1 | -1.9 | -0.2 | 6.9 | -7.0% | -46.9%[inhibitor] | 2.3%
Cc1ccc(NC(=S)N2CCCCC2)cc1C | 2.8 | 0.6 | 9.5 | 6.2% | 18.4%[15.4 µM] | .
NS(=O)(=O)c1ccc(CNC(=O)/C=C/c2ccco2)cc1 | ? | -0.6 | 8.4 | 3.4% | -21.6% | -0.8%
CC(C)OC(=O)c1c(NC(=O)COc2cccc(Br)c2)sc2c1CCCC2 | . | -0.8 | -13.0 | . | . | -7.7%
Cc1ccc2[nH]c(=O)c(CN(C)S(=O)(=O)c3cccc4nonc34)cc2c1 | . | -0.2 | -0.8 | 5.9% | -40.3%[inhibitor] | 0.8%
CC(C)(C)OC(=O)N1CCC(NC(=O)c2nc[nH]c2C(=O)NC2CCN(C(=O)OC(C)(C)C)CC2)CC1 | . | 0.7 | 8.7 | 0.1% | 3.6% | -2.4%
